E coli growth: E. coli growth inhibition, primary screen, OD600; Escherichia coli growth, 23 h; hits give low values; OD600 absorbance (no concentration beside the values); actives 0.21% (n = 330,000); AID 1053175, 2014;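 active = OD600 absorbance below the run mean of sample wells minus 3.6 SD, in any replicate, cut at about 0.56 in these data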;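 also: stock transfer was 300 nL into about 60 µL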
T cruzi inh: inhibitors of intracellular T. cruzi growth, primary screen, luminescence, NIH3T3 host cells; T. cruzi beta-gal in NIH3T3, 90 h; inhibition, % (concentration not given with the values); actives 1.4% (n = 300,000);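 active = mean inhibition across valid replicates above about 55%, limit read from the data; inconclusive = mean below that limit but half or more replicates reach it; inactive = mean below it, under half of replicates reach it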;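 also: signal also drops with host cell toxicity which is not excluded here; 0% = plate median of DMSO wells and 100% = zero luminescence signal; higher percent means less beta-gal luminescence so fewer parasites; stock transfer was 50 nL into about 50 µL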
Bfl-1 A1 inh: caspase 3/7 activation in MEF A1-2A-BIM cells, primary screen, A1 inhibitor project, cell-based, luminescence, HTS; actives 0.066% (n = 330,000); caspase activation, % (no concentration beside the values); AID 2462, 2010; Caspase-Glo 3/7 luminescence, 3 h; percent of clofoctol response, vehicle zero;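 active = over half of replicate activation scores above 10%, or exactly half above 10 with the replicate mean above 10; inconclusive = replicate mean below 10 yet half the replicates above 10; inactive = over half of replicates below 10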;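 also: wells of about 30 µL received 50 nL stock; many hits fall short of the cut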
FGF22 binding: binders of human FGF22 protein, primary screen, FGF22 synaptogenesis inhibitor project, biophysical, thermal shift, single point; calls only at 9.99 µM; Fibroblast growth factor 22 (Homo sapiens), Q9HCT0; AID 651658, 2012; actives 1.5% (n = 340,000); recombinant FGF22 thermal shift, SYPRO orange fluorescence; percent of sucrose octasulfate shift, DMSO zero;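 active = melting point raised past a set limit in the mean and every replicate; inconclusive = no clear call; three in four hits are not shown here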
Target sequence (Q9HCT0 whole entry, looked up): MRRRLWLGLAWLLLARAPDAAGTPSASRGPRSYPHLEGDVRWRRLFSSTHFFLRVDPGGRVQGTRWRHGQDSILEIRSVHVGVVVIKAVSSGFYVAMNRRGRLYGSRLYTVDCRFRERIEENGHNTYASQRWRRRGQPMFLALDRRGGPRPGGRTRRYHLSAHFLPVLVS
UCH37 inh: inhibitors of human UCH37 deubiquitinase, primary screen, biochemical, Ub-AMC cleavage, fluorescence | Ubiquitin carboxyl-terminal hydrolase isozyme L5 (Homo sapiens), Q9Y5K5 | actives 0.33% (n = 330,000) | inhibition, % (no concentration beside the values) | purified proteasome/UCH37;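 active = mean of two replicates above 20%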;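 also: 0% = compound-free wells with enzyme and 100% = wells lacking proteasome; stock transfer was 100 nL into about 20 µL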
Target sequence (Q9Y5K5 whole entry, looked up): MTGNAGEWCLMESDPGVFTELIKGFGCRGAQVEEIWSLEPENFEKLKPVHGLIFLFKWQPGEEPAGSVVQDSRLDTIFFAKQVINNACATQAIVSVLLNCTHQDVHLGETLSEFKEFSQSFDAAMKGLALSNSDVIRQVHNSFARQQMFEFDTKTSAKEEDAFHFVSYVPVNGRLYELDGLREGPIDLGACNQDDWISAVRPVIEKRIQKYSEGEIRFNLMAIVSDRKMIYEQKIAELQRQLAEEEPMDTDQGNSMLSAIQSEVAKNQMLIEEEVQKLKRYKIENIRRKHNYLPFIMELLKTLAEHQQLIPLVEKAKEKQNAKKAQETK
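Material: human UCH37 enzyme supplied as purified proteasome complex / Amount: 0.15 nM proteasome as dispensed / Buffer or medium: pH 7.4 Tris-HCl (50 mM) with ovalbumin, ATP-MgCl2, DTT / Times: preincubation 30 min, reaction 25 min, room temperature / Technique: AMC fluorescence from Ub-AMC cleavage, excitation 355 nm, emission 460 nm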
Beta apoptosis: inhibitors of cytokine-induced beta cell apoptosis, primary screen, luminescence; INS-1E cytokine-induced death, ATP luminescence, 48 h; percent of positive-control rescue, neutral wells zero; protection from apoptosis, % (no concentration beside the values); actives 0.8% (n = 300,000); AID 435005, 2010;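 active = all replicates at 75% or more, or half of them and the mean; inconclusive = half reach 75% but not the mean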;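 also: 0% = cytokine-treated negative control wells and 100% = positive control rescue; higher means more ATP so stronger rescue from cytokine killing; wells of about 40 µL received 100 nL stock; the first replicate is given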
MLL AF4-AF9 inh: inhibitors of AF4 peptide binding to AF9, primary screen, biochemical, AlphaScreen, biotin-AF4 peptide, FLAG-AF9, single point | actives 0.47% (n = 350,000) | inhibition, % at 10 µM | Protein AF-9 (Homo sapiens), P42568;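 active = every replicate reaching a set inhibition limit, whatever the replicate mean, cut at about 25% in these data; inconclusive = mean inhibition reaches that limit but some replicates miss it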;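 also: 0% = plate neutral control median and 100% = total signal loss; the record names both 10 and 1 µM as test concentration; the first replicate is given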
rRNA inh HTS: reduced GFP signal of wild-type E. coli, primary screen, bacterial rRNA inhibitor project, GFP/RFP fluorescence, OD600, single point. actives 1.6% (n = 350,000). E. coli WT GFP vs humanized-ribosome RFP mutants, 24 h; hits give low values; DMSO median 0, no signal -100. AID 720706, 2013. GFP signal change (wild-type ribosome), % (test concentration not listed);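 active = significant combined selectivity score with lowered wild-type GFP, culture density cut under 30%, mutant RFP and density less affected; inactive = any of these conditions unmet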; also: one replicate is shown; some compounds called inactive have numbers as strong as hits
rRNA inh HTS OD600: second read-out of rRNA inh HTS, no call of its own (marks repeat the call); OD600 change, %; measured here: OD600 growth;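 optical density of the mix in the first replicate; 0 = DMSO median and -100 = no signal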
rRNA inh HTS RFP: also measured in rRNA inh HTS; calls as there; RFP signal change, %; measured here: RFP humanized mutant strains;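 first replicate; 0 = DMSO median and -100 = no signal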
* = called active by the depositor; i = inactive; ? = inconclusive; / = no result given. The list is partial; count on the stated rates, not on these rows.

Each structure is followed by: E coli growth | T cruzi inh | Bfl-1 A1 inh | FGF22 binding | UCH37 inh | Beta apoptosis | MLL AF4-AF9 inh | rRNA inh HTS | rRNA inh HTS OD600 | rRNA inh HTS RFP
COc1cccc2c1O/C(=N\O)C(C(=O)Nc1cccc(C)c1C)C2 (centres undefined)
    / | 2 | -0.3 | i | / | -3 | -13 | 11 | 8 | 2.1
CCOc1ccc(C(=O)C[n+]2ccccc2C)cc1
    0.69 | 0 | 0.0 | / | 3.6 | 0 | / | / | / | /
Cc1nc(SCc2ccccc2)c2ccsc2n1
    0.7 | -2 | 0.3 | i | 1.3 | -2 | -0.2 | -30 | -43 | -0.1
O=C(NCC1CCCN1S(=O)(=O)c1cccs1)c1cccc(Cl)c1 (centres undefined)
    0.61 | 16 | 0.1 | i | -0.9 | / | -1.3 | -4 | -5 | 1.1
CCCn1c(=O)n(N)c2ccccc21
    0.68 | -13 | 0.3 | i | 2.3 | -6 | -5.2 | 4 | 6 | -4.6
CN(C)C(=O)c1c(-c2ccccc2)oc2ccc(O)cc12
    0.75 | 1 | 0.0 | / | -140 | -8 | / | / | / | /
Cc1c(CNCCC2=CCCCC2)c(C(=O)O)c(C)n1Cc1ccccc1
    0.7 | -8 | 2.3 | i | 6.2 | -8 | 4.9 | -5 | -3 | 0.2
O=c1oc2ccccc2c2c1cnc1ccccc12
    0.67 | / | / | i | -6.6 | / | -4.0 | -8 | -27 | 4.4
CC(C)CC(=O)NC(=S)Nc1ccc(F)cc1F
    0.67 | 2 | 0.3 | i | 0.1 | 2 | -3.2 | 11 | -8 | 4.2
CCOC(=O)c1ccc(NC2c3ccccc3C(=O)N2c2ccc(C)cn2)cc1 (centres undefined)
    0.74 | 9 | 0.1 | i | 3.9 | -2 | 4.9 | -1 | -8 | 9.3
O=C(Cc1ccccc1)NN1CCCCC1
    0.65 | 10 | 1.2 | i | 1.3 | -3 | 1.0 | -8 | -4 | -6.3
CCc1ccc(OCc2nnc(SCC(=O)Nc3cccc(C(=O)N4CCOCC4)c3)o2)cc1
    0.69 | -37 | -0.4 | i | 4.7 | -6 | -2.0 | 5 | 2 | 3.8
CCOc1ccc(OCC)c(-c2c(=O)n(OCc3ccc(Cl)cc3)c3ccccc3[n+]2[O-])c1
    0.69 | 27 | 0.5 | / | 1.7 | -8 | / | / | / | /
CCOc1ccc(NC(=S)N2CCc3cc(OC)c(OC)cc3C2COc2ccc3c(C)cc(=O)oc3c2)cc1 (centres undefined)
    0.72 | 47 | 0.5 | / | -8.5 | -8 | / | / | / | /
COc1ccc(OCCCn2cc(/C=C3/C(=N)N4C=C(C)SC4=NC3=O)c3ccccc32)cc1
    0.71 | 41 | 1.8 | i | -35 | 11 | 7.1 | 23 | 22 | 6.6
CN1CCN(c2ccc(NC(=O)c3ccc4ccccc4c3)cc2)CC1
    / | 17 | -0.9 | i | / | -6 | 2.2 | -15 | -3 | -3.1
CCOc1cccc(-c2c(C(=O)N/N=C(\C)c3cccs3)nnn2-c2nonc2N)c1
    / | -7 | 1.8 | i | / | / | -0.4 | -3 | -2 | 4.9
COc1ccc(OC)c(NC(=O)Cc2coc3ccc(C)cc23)c1
    0.7 | 7 | 0.7 | / | 3.5 | -13 | / | / | / | /
Cc1ccc(N(CC(=O)N(C)Cc2ccccc2)S(C)(=O)=O)cc1C
    0.67 | 0 | 0.6 | i | 1.0 | / | -2.5 | / | / | /
CN(C)S(=O)(=O)n1cc(/C=C(\NC(=O)c2ccccc2Cl)C(=O)NCCCn2ccnc2)c2ccccc21
    0.71 | -11 | -0.9 | i | 3.7 | 7 | 4.0 | 7 | 9 | -1.5
COc1ccccc1OCCCOc1ccc([N+](=O)[O-])cc1Cl
    0.79 | 7 | -2.8 | / | -1.3 | 2 | / | / | / | /
Cn1nc(C(=O)Nc2nc3ccccc3[nH]2)ccc1=O
    0.64 | -21 | -1.7 | i | 6.0 | 6 | -1.1 | 8 | 13 | 1.0
COc1ccc(C(=S)N(C)C)cc1OC
    0.72 | -11 | 0.2 | / | 0.1 | -8 | / | / | / | /
CCOC(=O)N1CCN(CC(=O)Nc2ccc(F)c(F)c2)CC1
    0.64 | -10 | 0.5 | i | 1.1 | 0 | -2.8 | -2 | 8 | -5.5
O=C(COc1ccccc1)n1nc(-c2ccc(Cl)cc2)nc1NCc1ccco1
    0.73 | -6 | 0.2 | / | 4.1 | -3 | / | / | / | /
O=C(NCCOc1ccccc1)c1cc2ccccc2o1
    0.65 | 3 | -3.8 | / | 5.9 | -1 | / | / | / | /
C/C(=N\Nc1cccc2cccnc12)c1ccc(C)cc1
    / | -22 | -1.6 | i | / | 0 | 14 | 12 | 4 | 3.7
CC(C)(C)CC(=O)Nc1nnc(SCC(=O)N2CCCCC2)s1
    0.71 | 4 | -0.3 | i | 2.8 | -8 | -5.8 | 2 | 1 | 0.3
CC1CCCC(C)N1C(=O)Cn1cc(/C=C2/C(=O)Nc3ccccc32)c2ccccc21 (centres undefined)
    / | 42 | 0.2 | / | 0.1 | 6 | / | / | / | /
C=CCSc1nc(C)c(CC(=O)OCC(C)C)c(=O)[nH]1
    0.72 | 21 | 1.2 | / | -3.3 | -5 | / | / | / | /
Cc1cccc(NS(=O)(=O)c2ccc(C(=O)N3CCC3)cc2)c1C
    0.69 | -2 | 1.2 | / | 3.0 | -5 | -1.3 | 5 | 2 | -1.8
COc1ccccc1OCC(=O)Nc1ccc(S(=O)(=O)N2CCCCCC2)cc1
    0.73 | 5 | 0.0 | i | 3.7 | 1 | 2.9 | -19* | -14* | 7.1*
COc1cc2ccccc2cc1C(=O)Nc1ccc(O)cc1
    0.59 | -47 | -1.4 | i | 0.1 | 9 | 0.2 | 1 | 3 | -2.5
O=C(O)CCCNC(=O)/C(=C\c1ccc(Cl)cc1)NC(=O)c1ccccc1Br
    0.67 | -11 | -0.6 | i | -0.1 | -4 | -0.3 | 15 | 16 | 4.6
CCCc1cc(=O)oc2cc(OCC(=O)NCc3ccccn3)ccc12
    0.7 | -4 | -0.4 | i | -23 | -2 | 0.1 | -10 | -6 | -9.8
Cc1ccc(COC(=O)c2cc(S(=O)(=O)N3CCOCC3)ccc2C)cc1
    0.71 | / | 0.1 | i | 1.0 | -4 | 5.2 | 6 | -16 | -3.3
Cc1cccc(C(=O)NCc2ccc(S(N)(=O)=O)cc2)c1[N+](=O)[O-]
    0.66 | -26 | -0.4 | / | 0.0 | -10 | / | / | / | /
COc1ccc(/C=C/C(=O)Nc2cc(C)on2)cc1
    0.73 | -39 | -2.8 | i | 0.5 | 1 | -37 | 16 | 11 | -5.7
O=C(NCCc1ccc(F)cc1)c1cccc(NC(=O)c2ccccc2)c1
    0.66 | -6 | -0.2 | i | 1.4 | 4 | 0.8 | -22* | -17* | -1.6*
COc1ccc(S(=O)(=O)NCCc2csc(C)n2)cc1C
    0.74 | -2 | 0.7 | / | -2.9 | -4 | / | / | / | /
CCCN1C(=O)c2ccccc2NC1c1ccc(OC)c(CSc2ccccn2)c1 (centres undefined)
    0.69 | 12 | 0.1 | i | -240 | 16 | -9.9 | -25 | -26 | -16
Cc1c(C(=O)N2CCN(c3ccccc3)CC2)oc2c(Cl)cccc12
    0.71 | / | -0.5 | i | -0.4 | 3 | -0.3 | -31 | -34 | -5.3
Cn1ncc(N=Cc2ccc([N+](=O)[O-])cc2)c1C(=O)N1CCOCC1
    0.67 | -8 | 0.2 | / | 8.7 | -5 | / | / | / | /
O=C(NCCc1ccccc1)C1CCCN(S(=O)(=O)c2cccnc2)C1 (centres undefined)
    0.72 | 3 | 0.7 | / | 3.9 | / | / | / | / | /
Cc1cccc(OCC(=O)OCC(=O)c2c(N)n(C)c(=O)n(C)c2=O)c1
    0.72 | -10 | 0.8 | / | 1.0 | -3 | / | / | / | /
CCCCN(C(=O)CSCC(=O)Nc1ccc(C)cc1)c1c(N)n(CC(C)C)c(=O)[nH]c1=O
    0.66 | / | -0.4 | i | -0.1 | -5 | -1.6 | 3 | 12 | 3.9
O=C(Nc1cccc(C(F)(F)F)c1)C1CCCO1 (centres undefined)
    0.65 | -21 | 0.4 | i | 0.5 | -11 | -7.1 | 18 | 14 | 3.1
CN1CCN(S(=O)(=O)c2cccc(C(=O)N(C)Cc3cccs3)c2)CC1
    0.68 | / | 1.1 | i | -2.3 | -5 | -0.5 | 4 | 2 | 1.5
COCC(=O)N(C)C[C@H]1N[C@@](Cc2ccccc2)(C(=O)OC)[C@H]2C(=O)N(Cc3ccccc3)C(=O)[C@@H]12
    0.71 | / | 0.1 | i | 6.2 | -2 | -1.8 | 10 | 15 | 0.0
COc1ccccc1CNC1CCN(Cc2ccccc2)CC1
    0.59 | 7 | -2.8 | i | 2.4 | 10 | -2.2 | 7 | 6 | 0.7
CSc1ccc(S(=O)(=O)NCC(=O)OCC(=O)NC2(C#N)CCCCC2)cc1[N+](=O)[O-]
    0.67 | 2 | 0.3 | i | 6.7 | -4 | 1.3 | 5 | 7 | 1.2
Cc1ccccc1C(=O)Nc1ccc(N2CCCC2)cc1
    0.72 | 7 | -7.6 | i | 4.0 | / | 7.4 | -11 | 14 | 2.9
NC(=O)c1ccccc1N/C=C1\CCCCC1=O
    0.68 | -22 | 0.7 | i | -14 | -10 | -0.6 | 9 | 7 | 4.0
O=C(OCc1nc2ccccc2s1)c1cnccn1
    0.7 | -2 | -0.3 | / | 0.9 | -1 | / | / | / | /
CC(C)Cc1nc2oc3c(NCC(C)O)ncnc3c2c2c1CCCC2 (centres undefined)
    0.6 | 3 | -0.6 | i | -24 | 0 | -1.4 | -12 | -2 | 2.4
CC1=C(CCN2CCN(C(C)C)C(CCO)C2)C(C)(C)CCC1 (centres undefined)
    0.71 | ? | -1.1 | / | 5.8 | 1 | -0.7 | 10 | -2 | 1.6
CCS(=O)CCSC(=N)N (centres undefined)
    0.72 | -6 | 0.1 | / | 1.6 | -4 | / | / | / | /

High-throughput results as filed in PubChem.
